# Assay outcomes: PubChem BioAssay, SRMLSC
# H5N1 antiviral: antiviral screen in MDCK cells, H5N1 avian flu. hit rate 0.07% among 96,000. cytopathic effect, luminescence, 72 h; stronger effect = higher value; no value below 0 was filed and about half of the inactive calls have no number; reference of the scale not given here. inhibition, % at 50 µM; in the data active = inhibition above about 25%
# * = called active by the depositor; i = inactive. The list is partial. The share of hits here may be higher or lower than overall.
SMILES,H5N1 antiviral
COCCNS(=O)(=O)c1ccc2c(c1)oc(=O)c1cc(S(=O)(=O)NCCOC)ccc12,0.4
Cc1ccccc1Nc1nc(CSc2nnnn2-c2ccccc2)cs1,i
CC(=O)c1ccc(Oc2ncnc3sccc23)c(CN2CCOCC2)c1,0.9
CCC1CCCCN1C(=O)CSc1nnc(-c2ccc(OC)cc2)o1 (stereo unspecified),4.3
CCOC(=O)C1=C(CSc2nc3ccccc3s2)NC(=O)NC1c1ccc(OC)cc1 (stereo unspecified),0.3
CCc1cc2c(s1)NC(=O)CN=C2c1cccs1,i
O=C(OC1CCN(c2ncc(C(F)(F)F)cc2Cl)CC1)c1cccc(C(F)(F)F)c1,i
COCCCNc1c2c3c(cccc3[nH]c1=O)C(=O)c1ccccc1-2,2.0
CS(=O)(=O)N(CC(=O)Nc1ccc2c(c1)OCO2)c1ccc2c(c1)OCO2,i
Cn1c(C(=O)N2CCOCC2)cnc1Sc1ncc(C(F)(F)F)cc1Cl,i
Cc1noc(NS(=O)(=O)c2ccc(N/C=C\C(=O)c3ccncc3)cc2)c1C,2.1
CC1(C)CC(CC(=O)O)(c2ccc(Cl)cc2)CCO1 (stereo unspecified),0.7
Cn1c(NCCCN2CCOCC2)nc2c1c(=O)n(Cc1ccc(Cl)cc1)c(=O)n2C,i
CS(=O)(=O)c1ccc2nc(NC3(C(F)(F)F)N=C4SCCN4C3=O)sc2c1 (stereo unspecified),1.1
COc1ccc(C(=O)N2CCN(S(=O)(=O)c3ccc(C)cc3C)CC2)cc1OC,1.5
Cc1c(OCc2ccc(C(=O)O)o2)ccc2c3c(c(=O)oc12)CCC3,0.1
CC1(C)CC(=O)c2c(O)cc(OCc3ccc([N+](=O)[O-])cc3)cc2O1,1.4
CCN(CC)S(=O)(=O)c1ccc(NC(=O)CC(NC(C)=O)c2ccccc2)cc1 (stereo unspecified),0.1
O=C(c1ccccc1NS(=O)(=O)c1cccs1)N1CCOCC1,i
CC(=O)c1cccc(-n2nnnc2SCC(=O)N2CCCC2)c1,i
Cc1ccc(S(=O)(=O)N(C)CC(=O)NC2CC(C)(C)NC(C)(C)C2)cc1,1.1
O=C(O)c1ccc(-n2nc(C(F)(F)F)c3c2CCCC3)cc1,i
CCCC(C)C(=O)Nc1ccc2c(c1)OCCO2 (stereo unspecified),0.2
CCC(CC)NC(=O)COC(=O)c1ccc(NS(=O)(=O)c2ccc3c(c2)OCCO3)cc1,0.4
CCCn1c(SCC(N)=O)nc2c(c1=O)C1(CCCC1)Cc1ccccc1-2,1.1

# 5 of the compounds above, as tab-separated lines.
SMILES	H5N1 antiviral
Cc1c(OCc2ccc(C(=O)O)o2)ccc2c3c(c(=O)oc12)CCC3	0.1
CC1(C)CC(=O)c2c(O)cc(OCc3ccc([N+](=O)[O-])cc3)cc2O1	1.4
CCN(CC)S(=O)(=O)c1ccc(NC(=O)CC(NC(C)=O)c2ccccc2)cc1 (stereo unspecified)	0.1
O=C(c1ccccc1NS(=O)(=O)c1cccs1)N1CCOCC1	i
CC(=O)c1cccc(-n2nnnc2SCC(=O)N2CCCC2)c1	i

# (next part)
SMILES,H5N1 antiviral
NS(=O)(=O)c1ccc(NC(=O)N2c3ccccc3Sc3ccccc32)cc1,i
CCC(=O)Nc1nc(C)c(Oc2ccccc2)c(=O)[nH]1,i
Cc1ccc(/C=N/NC(=O)c2ccco2)s1,0.7
O=C(/C=C/c1cccs1)Nc1nc(-c2ccccc2)cs1,0.4
c1coc(C2Nc3cccc4cccc(c34)N2)c1,5.1
Oc1ccccc1-c1cc(-c2ccccc2Cl)[nH]n1,5.6
CCC(C)NC(=O)C1CCN(S(=O)(=O)CC)CC1 (stereo unspecified),i
COc1ccc2c(c1)C(C)CC(C)(C)N2C(=O)CSc1ncn[nH]1 (stereo unspecified),3.1
FC(F)(F)c1cccc(-c2ccc(-c3csnn3)o2)c1,i
O=C(CSc1ncnc2c1oc1ccccc12)Nc1nc2ccccc2s1,i
CCC(=O)N1CCc2cc(Br)cc(S(=O)(=O)N3CCCCCC3)c21,1.1
O=C(CSc1ncnc2c1oc1ccccc12)Nc1cccc(F)c1,0.4
N#CC(C(=O)OC1CCCCC1)c1nc2ccccc2nc1N1CCCCC1 (stereo unspecified),0.2
CCOC(=O)C1=C(CSc2nc3c(cc2C#N)CN(C)CC3)OC(N)=C(C#N)C1c1ccc(F)cc1 (stereo unspecified),0.4
CCSc1nnc(CNc2ccc(F)cc2)n1CC1CCCO1 (stereo unspecified),i
CCCOC(=O)CN1C(=O)c2ccccc2C1=O,i
COc1ccc(C(=O)NNC(=S)NC2CCCCC2)cc1OC,i
O=C(NCc1ccco1)c1ccccc1NS(=O)(=O)c1ccc2c(c1)OCCO2,i
C/C(=C\C(=O)c1ccccc1)Nc1ccc(O)cc1,i
O=C(Nc1cccc2nsnc12)c1ccc(-c2cccc(Cl)c2)o1,i
Cc1nn(-c2ccccc2)c2sc(-c3nnc(SCC(=O)O)o3)cc12,0.4
Cc1cccc(N=Nc2c(N)n[nH]c2-c2ccc(Cl)cc2)c1,i
COc1ccc(NC(=O)CCC2CCCC2)cc1OC,i
COC(=O)c1ccc(NC(=O)C2C3CCC(C3)C2C(=O)O)cc1 (stereo unspecified),0.3
COc1ccc(F)cc1CN1CCN(C(=O)CCC(=O)Nc2nnc(C(C)C)s2)CC1,i

# (more compounds)
SMILES,H5N1 antiviral
N#Cc1ccc(Oc2cccc(C(=O)O)c2)cc1C#N,0.6
Cc1c(C(=O)NCc2cccnc2)oc2ccc(S(=O)(=O)N3CCC4(CC3)OCCO4)cc12,0.8
Cc1ccc(CNc2ncccc2-c2nc3cc(Cl)ccc3o2)cc1,i
CC1(C)CC(=O)C2=C(C1)N(Cc1cccnc1)C(=O)C2(NC(=O)C1CC1)C(F)(F)F (stereo unspecified),1.2
CCCCn1c(NC(C)CC)nc2c1c(=O)[nH]c(=O)n2C (stereo unspecified),1.2
Cc1cc(C)cc(NC(=O)N2CCCC2C(=O)Nc2ccc(-n3cnnn3)cc2)c1 (stereo unspecified),i
CCNC(=O)c1ccc(C2SCC(=O)N2Cc2ccco2)cc1 (stereo unspecified),i
COc1ccc(Cc2nn[nH]n2)cc1,i
Cc1[nH]c2ccc(C(=O)O)cc2c1C,1.0
CCOC(=O)C1C2NC(=O)N(Cc3ccccc3)C1(C)Oc1c(OC)cccc12 (stereo unspecified),i
COc1ccc(C(=O)N2CCN=C2SCc2cccnc2)c(OC)c1,1.3
CCOC(=O)N1CCN(C(=O)c2cnc3n(c2=O)CCS3)CC1,0.6
CCOc1ccc(C(=O)Nc2ccc3c(c2)OCCO3)cc1OC,1.2
COc1ccccc1NC(=O)Cn1cc(C#N)c2ccccc21,0.3
Nc1nc(N2CCOCC2)nc2ccccc12,i
CC(C)(C)OC(=O)N1CCOCCOCCN(C(=O)OC(C)(C)C)CCOCCOCC1,i
O=C(O)c1ccc(SCc2cnc(Cl)s2)cc1,i
Cc1csc(SCC(=O)Nc2cc(C(C)(C)C)nn2-c2ccccc2)n1,0.3
Cn1c(=O)n(Cc2ccccc2)c(=O)c2c1nc1n2CCS1,i
Cc1occc1C(=O)NCCCc1ccccc1,i
O=C(c1cc(F)c(F)cc1Cl)N1CCCCC1,0.1
CCCCn1c(=N)n(CC(O)COc2cccc(C)c2)c2ccccc21 (stereo unspecified),i
COc1cccc(CNc2ccc(F)c(Cl)c2)c1OC,2.3
COc1cc(C(=O)NCCc2cn3ccc(C)cc3n2)cc(OC)c1OC,12
O=C(c1ccccc1-c1ccccc1)N1CCN(c2ccccn2)CC1,i

# More results:
SMILES,H5N1 antiviral
C=CCn1c(SCC(=O)Nc2ccccc2)nnc1-c1cccc(S(=O)(=O)N2CCOCC2)c1,3.1
CCN(CC)C(=O)Cn1cnc2sc(C(=O)Nc3cc(OC)c(OC)c(OC)c3)c(C)c2c1=O,i
CCC(NC(=S)NCc1ccccc1)C(=O)O (stereo unspecified),i
CCOc1c2ccc(C(=O)NCc3ccc4c(c3)OCO4)cc2nn1C,0.1
COc1ccc(Br)cc1S(=O)(=O)n1ccnc1C,0.0
Cc1n[nH]c(C)c1S(=O)(=O)N1CCCC(C(=O)NC2CCCc3ccccc32)C1 (stereo unspecified),i
O=C(Nc1cnn(Cc2ccc(F)cc2)c1)c1cc(-c2cccs2)on1,i
COc1ccc(/C=N/NC(=O)c2nn(-c3ccccc3)c(=O)c3c(N)scc23)cc1,0.6
O=C(NC1CCC(C(=O)O)CC1)OCc1ccccc1 (stereo unspecified),0.2
CC1(C)Cc2c(sc3c2c(=N)n(Cc2ccco2)c(=O)n3CC(=O)Nc2cccc(Cl)c2)CO1,i
CCCCn1nc2cc(C(=O)NCc3ccco3)ccc2c1OCC,i
O=C(c1ccc(S(=O)(=O)N2CCOCC2)cc1)N(c1ccccc1)C1C=CS(=O)(=O)C1 (stereo unspecified),1.4
CCN1C(=O)N(CC)C2NC(=S)NC21 (stereo unspecified),0.8
COc1cccc(NC(=O)C(NCC(C)(C)CN(C)C)c2ccccc2)c1 (stereo unspecified),0.3
CC(C)OC(=O)CCCN1C(=O)c2ccc(N)cc2C1=O,i
OC(COc1ccccc1)Cn1cc(Br)cn1 (stereo unspecified),i
CC(C)n1nnnc1-c1cc(Cl)cc(Cl)c1,1.6
CC(=O)N1CCc2cc(S(=O)(=O)NC(CC(C)C)C(=O)Nc3cc(C(=O)O)ccc3C)ccc21 (stereo unspecified),1.0
Cc1nn(-c2ccccc2)c2c1C1(C(=O)N(C)c3ccccc31)N(c1ccccc1)C(=O)N2 (stereo unspecified),i
Cc1csc(NC(=O)CN(C)S(=O)(=O)c2cccc3cccnc23)n1,2.9
Cc1ccc(N(C)C(=O)Oc2cccc3cccnc23)cc1,1.4
Cc1cccc(CSc2ncnc3nc[nH]c23)c1,8.0
CCN(CC)CCCNC(=O)C1c2ccccc2C(=O)N(C)C1c1ccc(OC)cc1 (stereo unspecified),0.4
Cc1cc(C)nc(NS(=O)(=O)c2ccc(NC(=O)c3cccs3)cc2)n1,0.6
CCC(C(=O)NC1CCCC1)N(C(=O)Cn1nnc(-c2cccs2)n1)c1cnc2ccccc2c1 (stereo unspecified),i

# Next part (six carried over from the part before).
SMILES,H5N1 antiviral
Cc1csc(NC(=O)CN(C)S(=O)(=O)c2cccc3cccnc23)n1,2.9
Cc1ccc(N(C)C(=O)Oc2cccc3cccnc23)cc1,1.4
Cc1cccc(CSc2ncnc3nc[nH]c23)c1,8.0
CCN(CC)CCCNC(=O)C1c2ccccc2C(=O)N(C)C1c1ccc(OC)cc1 (stereo unspecified),0.4
Cc1cc(C)nc(NS(=O)(=O)c2ccc(NC(=O)c3cccs3)cc2)n1,0.6
CCC(C(=O)NC1CCCC1)N(C(=O)Cn1nnc(-c2cccs2)n1)c1cnc2ccccc2c1 (stereo unspecified),i
CC1(C(=O)O)CCC(C(=O)NC2CCCCCC2)C1(C)C (stereo unspecified),i
CN(C(=S)NC1=CCS(=O)(=O)C1)C1CCCCC1,i
Cc1ccc(/C(COc2ccccc2O)=N\O)cc1,0.2
Cc1ccccc1CNC(=O)Nc1cccs1,1.6
Cc1ccc(Cl)cc1-n1c(=O)cc(N2CC(C)OC(C)C2)[nH]c1=O (stereo unspecified),0.7
CCOc1ccc(Cl)cc1S(=O)(=O)N1CCCC1,0.0
O=C(Nc1ccccn1)c1ccc(NC(=O)c2ccco2)cc1,5.0
CCCC(C)C(=O)Nc1nc(C)c(-c2csc(Nc3ccc(Cl)cc3)n2)s1 (stereo unspecified),i
O=C(NC1CCN(Cc2ccccc2)CC1)c1cc(-c2ccccn2)nc2ccccc12,1.3
Cc1ccc(C)c(-n2nnnc2SCC(=O)c2ccc3c(c2)NC(=O)CO3)c1,1.7
CC1(C)Cc2c(C#N)c(N)sc(=S)c2CO1,i
NC1(N)OC(CN2C(=O)c3ccccc3C2=O)CS1 (stereo unspecified),i
O=C1CSc2nc3ccccc3n21,i
COc1ccnc(Oc2ccc3ccccc3c2)c1C#N,0.1
CC(SC1CCCC1)C(=O)Nc1ccnn1C(C)C (stereo unspecified),0.5
CCSc1nnc(NC(=O)C2Cc3ccccc3CN2C(=O)c2ccco2)s1 (stereo unspecified),0.7
Cc1ccn2cc(CNC(=O)c3ccc(Br)o3)nc2c1,0.6
CCc1ccc2[nH]c3nc(SCC(=O)NNC(=O)c4ccc(C(C)(C)C)cc4)nnc3c2c1,i
O=C(Nc1ccc(-c2nc3cccnc3s2)cc1)c1ccco1,5.0
CCc1cccc(CC)c1NC(=O)C1CC(=O)N(c2ccc3c(c2)OCCO3)C1 (stereo unspecified),i
CCN(Cc1ccccc1)C(c1cc2ccc(C)cc2[nH]c1=O)c1nnnn1CCOC (stereo unspecified),1.7
Cc1ccc(OCc2nc(C#N)c(N3CCN(Cc4ccccc4)CC3)o2)cc1,0.2
COC(=O)c1cc(NCc2ccc3c(c2)OCO3)ccc1N1CCOCC1,i
O=C(CN1CCN(Cc2cccc(Cl)c2)C1=O)NCC1CCCO1 (stereo unspecified),0.1
C=C(C)CN(CC)c1nc(N)c(C#N)c(CC#N)c1C#N,2.1

# (cont.)
SMILES,H5N1 antiviral
Cc1cccc(S(=O)(=O)N2CN(Cc3ccco3)c3nc4ccccc4nc32)c1,3.7
COc1ccc(CN(C(=O)c2ccco2)C2CC(C)N(C)CC2C)cc1 (stereo unspecified),0.2
COCc1nnc(NC(=O)c2cc(Cl)ccc2OC)s1,0.7
CC(C)c1nnc(NC(=O)CCC(=O)NC2CCCCCCC2)s1,0.8
CC(C)N(C(=O)COC(=O)c1ccc(O)cc1)C(C)C,0.6
Cc1cc(C)cc(N(CC(=O)NC2CC3CCC2C3)S(C)(=O)=O)c1 (stereo unspecified),1.0
CCC(Sc1nc(N)cc(=O)[nH]1)C(=O)NC(C(=O)OC)c1ccccc1 (stereo unspecified),0.8
O=C(CCSc1nnc(-c2ccco2)o1)Nc1ccccc1,0.0

# Part of the list above in another layout.
OC(COc1ccccc1)Cn1cc(Br)cn1 (stereo unspecified)
  H5N1 antiviral: i

CC(C)n1nnnc1-c1cc(Cl)cc(Cl)c1
  H5N1 antiviral: 1.6

CC(=O)N1CCc2cc(S(=O)(=O)NC(CC(C)C)C(=O)Nc3cc(C(=O)O)ccc3C)ccc21 (stereo unspecified)
  H5N1 antiviral: 1.0

Cc1nn(-c2ccccc2)c2c1C1(C(=O)N(C)c3ccccc31)N(c1ccccc1)C(=O)N2 (stereo unspecified)
  H5N1 antiviral: i
